# 2A Renilla: Primary qHTS Assay for Foot and Mouth Disease Virus Antivirals against NCGC Sytravon and CBC Compound Libraries: Renilla Luciferase Signal; HEK cells with a luciferase reporter of 2A StopGo recoding; Potency, µM (top dose mostly 57.5 µM), for the others: at the highest dose signal change, negative = less light; 0.32% of 120,000 active; AID 1745857, 2022; active means well fitted falling curve with a large enough effect; inconclusive means small, poorly fitted or top-dose-only effect; inactive means no such curve, though single readings can be large or run the other way; note: nearly all actives have a fitted effect of over 55% in size; overnight with compound
# 2A firefly: Primary qHTS Assay for Foot and Mouth Disease Virus Antivirals against NCGC Sytravon and CBC Compound Libraries: Firefly Luciferase Signal. HEK cells with a luciferase reporter of 2A StopGo recoding. Potency, µM (doses to about 57.5 µM), for the others: at the highest dose signal change, negative = less light. 0.23% of 120,000 active; active = well fitted falling curve with a large enough effect; inconclusive = small, poorly fitted or top-dose-only effect; inactive = no such curve, though single readings can be large or run the other way; note: nearly all actives have a fitted effect of over 60% in size; overnight with compound
# * = called active by the depositor; u = inconclusive; & = joins results of further samples; [ ] = dose if it differs, or a comment. % is set by controls: 0 for no effect and ±100 for the full control effect; potency is the fitted concentration of half-maximal effect. No enrichment for hits (roughly 0.55% active in at least one column).
SMILES,2A Renilla,2A firefly
O=C(COc1ccc(F)cc1)Nc1ccc(-c2nc3ccccc3o2)cc1,-2%,73%[activator]
N#CC(Cc1ccccc1CO)c1nc2ccccc2s1 (stereo not given),-8%[1.06 µM],116%[activator]
COc1cccc(Cn2cc(C(=O)c3ccccc3)c(=O)c3cc4c(cc32)OCO4)c1,-15%,-17%
CCc1ccc([C@@H]2c3c(C)nn(-c4ccccc4)c3NC(=O)[C@H]2NC(=O)c2ccccc2)cc1,4%,-15%
COc1ccc(N2C(=O)CSC23C(=O)N(Cc2ccccc2F)c2ccccc23)cc1Cl (stereo not given),3%,-21%
CC(=O)Oc1ccc2oc(=O)c(-c3ccccc3)c(C)c2c1,77%[activator],67%[activator]
COc1ccccc1NC(=O)c1cc(=O)c2ccc(C)cc2o1,-4%,10%
CC1CCN(c2nc3c(c(=O)n(C)c(=O)n3C)n2CC(=O)C23CC4CC(CC(C4)C2)C3)CC1,15%,12%
COCCNC(=O)c1ccc2c(c1)N(Cc1cccc(Cl)c1)C(=O)c1ccccc1S2=O (stereo not given),-3%,-18%
O=C(CCn1cccn1)Nc1cccc(C(F)(F)F)c1,-6%,-11%
O=C(CN1CCN(C(=O)c2nn(Cc3ccccc3)c(=O)c3ccccc23)CC1)N1CCCCCC1,21%,11%
Cc1ccc(NC(=O)Cn2nnc(-c3ccccc3)n2)c(C)c1,-5%,1%
Cc1ccccc1CS(=O)(=O)Cc1ccc(C(=O)NCCc2ccc(Cl)cc2)o1,u,u
Cn1c(=O)oc2cc(S(=O)(=O)CCC(=O)NCCc3ccc(Cl)cc3)ccc21,19%,-12%
COCCCNC(=O)C1CCN(c2cc(C)nc3c(-c4ccc(Cl)cc4)c(C)nn23)CC1,-3%,-5%
CCC1CN(C(=O)NCc2ccc(C)cc2)c2cc(C)ccc2O1 (stereo not given),15%,-14%
COC(=O)c1ccc(OC)c(Cn2c(=O)n(Cc3ccccc3)c(=O)c3c2c2cc(OC)ccc2n3C)c1,4%,-12%
O=C(COc1ccccc1Cl)Nc1cccc(NC(=O)c2ccco2)c1,89%[activator],150%[activator]
Cn1c(=O)c2c(nc(Oc3ccccc3F)n2Cc2ccccc2F)n(C)c1=O,12%,20%
COc1ccc(NC(=O)c2cc(=O)c3ccc(C)c(C)c3o2)cc1,14%,0%
CC(C)Oc1ccc(CNC(=O)c2ccccc2NC(=O)c2nsc3ccccc23)cc1,-2%,63%[activator]
N#Cc1cn(CC(=O)NCc2ccccc2)c2ccccc12,0%,89%[activator]
Cc1c(C(=O)N(C)c2ccccc2)sc2nc3n(c(=O)c12)CCCC3,-18%,12%
Cc1nc2nc(N(Cc3ccccc3)C(=O)c3ccco3)[nH]n2c(=O)c1C,45%[activator],38%[activator]
COc1cccc(-n2c(SCC(=O)Nc3ccc4c(c3)OCO4)nc3c([nH]c4ccccc43)c2=O)c1,-24%,-5%

# Sorted by length of the SMILES (low to high): five of the compounds above
SMILES,2A Renilla,2A firefly
O=C(COc1ccc(F)cc1)Nc1ccc(-c2nc3ccccc3o2)cc1,-2%,73%[activator]
Cc1c(C(=O)N(C)c2ccccc2)sc2nc3n(c(=O)c12)CCCC3,-18%,12%
CC(C)Oc1ccc(CNC(=O)c2ccccc2NC(=O)c2nsc3ccccc23)cc1,-2%,63%[activator]
O=C(CN1CCN(C(=O)c2nn(Cc3ccccc3)c(=O)c3ccccc23)CC1)N1CCCCCC1,21%,11%
COC(=O)c1ccc(OC)c(Cn2c(=O)n(Cc3ccccc3)c(=O)c3c2c2cc(OC)ccc2n3C)c1,4%,-12%

# Returning to the listing with the 5 entries that preceded the break.
SMILES,2A Renilla,2A firefly
CC(C)Oc1ccc(CNC(=O)c2ccccc2NC(=O)c2nsc3ccccc23)cc1,-2%,63%[activator]
N#Cc1cn(CC(=O)NCc2ccccc2)c2ccccc12,0%,89%[activator]
Cc1c(C(=O)N(C)c2ccccc2)sc2nc3n(c(=O)c12)CCCC3,-18%,12%
Cc1nc2nc(N(Cc3ccccc3)C(=O)c3ccco3)[nH]n2c(=O)c1C,45%[activator],38%[activator]
COc1cccc(-n2c(SCC(=O)Nc3ccc4c(c3)OCO4)nc3c([nH]c4ccccc43)c2=O)c1,-24%,-5%
CCCCC(=O)Nc1ccc2oc(-c3ccc(OC)c(Cl)c3)nc2c1,5%,73%[activator]
CC(C)CNC(=O)COC(=O)c1n[nH]c(=O)c2ccccc12,0%,1%
CC(C)Oc1ccc(CNS(=O)(=O)c2cnc(N)nc2)cc1,-7%,3%
CCc1ccc(C(=O)C(C)Sc2nncn2-c2ccccc2OC)cc1 (stereo not given),49%[activator],9%
CCOc1cccc2sc(NC(=O)c3ccc(S(=O)(=O)N4CCCCC4C)cc3)nc12 (stereo not given),-12%,28%
CC(C)(C)C(=O)/C(C#N)=C/c1ccc(OCc2ccc(Cl)cc2Cl)cc1,-1%,105%[activator]
NC(Cc1ccc(OC(F)(F)F)cc1)C(=O)O (stereo not given),2%,11%
CC(C)(C)NCC(O)c1cc(O)cc(O)c1 (stereo not given),0%,14%
CCS(=O)(=O)N1CCC(n2c(C)nc3cccnc32)CC1,-9%,-6%
Nc1nn(Cc2ccc(Cl)cc2Cl)cc1Cl,-11%,8%
O=C(NCCN1CCN(S(=O)(=O)c2ccccc2)CC1)C(=O)Nc1ccc(F)cc1,5%,4%
COc1ccc(NC(=O)Cn2ccc3cc(Cl)ccc32)cc1,110%[activator],35%[activator]
COc1ccccc1CNc1nc(-c2ccccc2)cs1,18%,131%[activator]
Cc1nnc(-c2ccncc2)nc1C,-5%,0%
CCCCCOc1ccccc1CN1C(=O)C(=O)c2cc(C)ccc21,0%,23%
C=CCNc1nc(C(=O)OCC(=O)c2cc(C)n(C)c2C)cs1,-14%,41%[activator]
OCCCNC(=S)Nc1ccccc1F,12%,14%
Cc1cc2c(cc1C)NC(CC(=O)Nc1ccccc1)C(=O)N2 (stereo not given),-4%,18%
CCCCCn1c(=O)[nH]c2cc(C(=O)NCc3ccc(Cl)cc3)ccc2c1=O,0%,-9%
COc1ccccc1OCc1nc2c3c(ncn2n1)Oc1cc(O)ccc1C3c1ccccc1 (stereo not given),-21%&-15%,u
CCS(=O)(=O)N1CCc2cc(C(=O)NCCc3ccc(OC)c(OC)c3)ccc21,-10%,-4%
CCc1nn(CC(=O)NC(C)CCc2ccccc2)c(=O)c2cc3cc(F)ccc3n12 (stereo not given),3%,-8%
Cc1oc2ccc(NS(=O)(=O)c3ccccc3)cc2c1C(=O)O,-2%,-3%
Fc1ccc(CNc2cc(-c3ccccc3)nc3nncn23)cc1,-2%,8%
CC1=NS(=O)(=O)NC(C)=C1CCC(=O)Nc1ccc(C(C)C)cc1,-3%,1%

# Retrieved one by one from the entries so far, seven records:
SMILES,2A Renilla,2A firefly
C=CCNc1nc(C(=O)OCC(=O)c2cc(C)n(C)c2C)cs1,-14%,41%[activator]
CCCCCn1c(=O)[nH]c2cc(C(=O)NCc3ccc(Cl)cc3)ccc2c1=O,0%,-9%
CCc1nn(CC(=O)NC(C)CCc2ccccc2)c(=O)c2cc3cc(F)ccc3n12 (stereo not given),3%,-8%
CCS(=O)(=O)N1CCc2cc(C(=O)NCCc3ccc(OC)c(OC)c3)ccc21,-10%,-4%
CC(C)Oc1ccc(CNS(=O)(=O)c2cnc(N)nc2)cc1,-7%,3%
CCCCCOc1ccccc1CN1C(=O)C(=O)c2cc(C)ccc21,0%,23%
Cc1oc2ccc(NS(=O)(=O)c3ccccc3)cc2c1C(=O)O,-2%,-3%

# Part of the list above in a different format.
mol | 2A Renilla | 2A firefly
Fc1ccc(CNc2cc(-c3ccccc3)nc3nncn23)cc1 | -2% | 8%
CC1=NS(=O)(=O)NC(C)=C1CCC(=O)Nc1ccc(C(C)C)cc1 | -3% | 1%

# The list continues:
SMILES,2A Renilla,2A firefly
Cc1ccc2c(c1)C(=O)OC(C(=O)Nc1ccccc1C(=O)O)C2 (stereo not given),-5%,-2%
CCOc1cc(C(=O)O)ccc1OCCOc1ccccc1Cl,-1%,12%
O=C(c1ccc(-c2ccccc2)cc1)N(Cc1ccco1)C1CC1,0%,0%
COc1ccc(Br)cc1C1C(C(=O)Nc2ccc(C)cc2C)=C(C)Nc2ncnn21 (stereo not given),-3%,-6%
COc1ccc(CNC(=O)CSCc2nc(-c3ccccc3C)oc2C)cc1,0%,39%[activator]
CCCCC(=O)Nc1cc(C(=O)OCc2cc(=O)n3oc(C)cc3n2)ccc1OC,0%,3%
COc1ccc(CNC(=O)C2CCN(c3nc4ccccc4[nH]3)CC2)c(OC)c1,-10%,-11%
Cc1ccc(-c2n[nH]c(=O)c3ccccc23)cc1NC(=O)N[C@@H](C)C(=O)O,9%,22%
CCOc1ccccc1N(CC(=O)NC1CC1)S(C)(=O)=O,1%,10%
O=C(O)C1CCN(/C=C/C(=O)C(F)(F)F)CC1,-6%,-1%
CCc1ccc(NC(=O)Cc2nc(-c3cc(C)n(-c4cc(C)on4)c3C)cs2)cc1,-8%,29%
COCCNC(=O)c1ccc2c(=O)n(CCc3ccccc3)c(SCC(=O)CC(=O)OC)nc2c1,2%,-11%
COC(=O)CCn1c(SC(C)C(=O)c2ccc(Br)cc2)nc2ccccc2c1=O (stereo not given),13%,6%
Cc1c(Nc2nc3ccc(Cl)cc3n3cnnc23)cccc1[N+](=O)[O-],-4%,-7%
CNC(=S)NNC(=O)c1cccc(C)c1,34%[activator],16%
CCOC(=O)c1cccc(NC(=O)c2cc3c(=O)n(Cc4ccccc4)ccc3nc2C)c1,10%,-1%
CCCCn1cc(S(=O)(=O)c2ccc(Cl)cc2)c(=O)c2cc(F)c(N3CCCC(C)C3)cc21 (stereo not given),-9%,-1%
O=C(NCc1ccccc1Cl)C(=O)NCC(c1cccs1)S(=O)(=O)c1ccccc1 (stereo not given),23%,-26%
CC(=O)Nc1ccc(S(=O)(=O)Nc2cccc(-c3ccc(N4CCC(C)CC4)nn3)c2)cc1,154%[activator],129%[activator]
CCOc1ccc(CNC(=O)c2ccc(Sc3ccc(Cl)cc3)c(NC(C)=O)c2)cc1OC,u,u
Cc1ccc(-n2c(=O)c3c(cnn3C)n(Cc3ccccc3F)c2=O)cc1,-2%,-20%
O=C(Nc1ccc(SC(F)F)cc1)c1cc(-c2cccs2)on1,-19%,-15%
NC(=O)CSc1ccc2c(c1)OCCCO2,2%,11%
Cc1cc(C)cc(Nc2nc(NCc3ccco3)nc3c2cnn3-c2ccccc2)c1,12%,9%
COc1ccc(N2CC(NC(=O)c3cccs3)CC2=O)cc1 (stereo not given),11%,-7%
SMILES,2A Renilla,2A firefly
CSc1cccc(NC(=O)CCc2ncc(-c3ccc(F)cc3F)o2)c1,65%[activator],157%[activator]
Cc1ccc2c(c1)C(CS(=O)(=O)NCC(C)C)NC2 (stereo not given),212%[activator],6%
CC1CCN(S(=O)(=O)c2cccc(C(=O)N(C)C3(C)CCS(=O)(=O)C3)c2)CC1 (stereo not given),25%,-4%
CN1CCC(OC(c2ccccc2)c2ccccc2)CC1,-15%,-25%
Cc1cccc(C)c1Nc1c(-c2ccccc2O)nc2ncccn12,-2%,-4%
COc1ccc(-c2onc(C)c2C)cc1S(=O)(=O)Nc1cccc(C#N)c1,12%,-29%
C=C(C)Cn1c(=O)c2c(nc(-n3nc(C)c(C)c3C)n2CCC)n(C)c1=O,u,u
CCOC(=O)c1cc(Cl)c(C(=O)OCC)cc1Cl,-2%,20%
Cc1cc(C(=O)OCc2cccnc2)c2ccccc2n1,36%[activator],41%[activator]
CCOc1ccc(NS(=O)(=O)c2ccc(C(=O)NC3CCN(S(C)(=O)=O)CC3)cc2)cc1,0%,-1%
O=C(CCCn1c(=O)c2ccccc2n(CC(=O)Nc2ccc(F)cc2F)c1=O)NCc1ccccc1Cl,32%[activator],16%
CC(=O)c1cccc(NC(=O)CSc2nnc3n(CC(C)C)c(=O)c4cc(F)ccc4n23)c1,-11%,-14%
CCC(=O)Nc1ccccc1-c1nc2ccccc2n(CC(=O)Nc2ccc(NC(C)=O)cc2)c1=O,10%,9%
COc1cccc(CC(=O)Nc2ccc3nc(N4CCC(C)CC4)cc(C)c3c2)c1,23%,8%
CNC(=O)c1ccc(/C=C/C(=O)c2ccccc2C)cc1,u,u
CCC(C)NC(=O)NCC12CC3CC(CC(C3)C1)C2 (stereo not given),6%,-12%
CC1C(=O)N2CCCc3cc(S(=O)(=O)N4CCc5ccccc54)cc1c32 (stereo not given),82%[activator],8%
CCOC(=O)C1C(=O)C=C(c2ccc(F)cc2)CC1c1cccc(F)c1 (stereo not given),5%,-4%
CN1C(=O)C2(c3ccccc31)N(c1cccc(C(F)(F)F)c1)C(=O)CS2(=O)=O (stereo not given),-19%,-21%
Cc1ccc(NC(=O)N(C)Cc2nc(-c3ccccc3C)oc2C)cc1F,42%[activator],21%
O=C(Nc1cccc2cccnc12)c1ccc(Cl)cc1Cl,7%,0%
Cc1ccc(-c2cc(C(=O)N3CCN(c4ccccc4)CC3)c3ccccc3n2)cc1C,-9%,20%
C/C=C/Cn1c(N2CCN(C)CC2)nc2c1c(=O)[nH]c(=O)n2C,-4%,2%
COc1cc(NC(=O)CCc2c(C)nc3nc(-c4cc(OC)cc(OC)c4)nn3c2C)cc(OC)c1,9%,31%
N#CCOc1ccc2c(=O)c(-c3ccccc3)c(C(F)(F)F)oc2c1,-7%,15%
CC(=O)c1ccc(NC(=O)Nc2ccc3snnc3c2)cc1,-2%,275%[activator]
COC(=O)c1c(NC(=O)c2ccc(S(=O)(=O)N3CCCCC3C)cc2)sc2c1CCN(C(C)C)C2 (stereo not given),-10%,-22%

# Assay outcomes as filed in PubChem.
